BJeLR viability: kills HRASV12-expressing BJeLR cells; BJeLR (HRASV12) viability, CellTiter-Glo ATP luminescence, 48 h; reference of the scale not given here; 300,000 compounds, 0.17% hits; AID 1554; inhibition, % (concentration not given with the values);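 active = replicate mean above 50%; inconclusive = above 50% but judged a plate artefact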;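 note: 50 nL library stock added to about 25 µL; numbers are from one replicate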
PrP 5UTR inh: suppresses PrP 5' UTR mRNA reporter expression. cell-based PrP 5' UTR mRNA reporter, plate reader. inhibition, % (concentration not given with the values). 340,000 compounds, 0.35% hits. AID 488862;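 active = every replicate at 50% or more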;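 note: 0 = median of the neutral control wells; tested in H4 reporter cells; numbers are from one replicate; inactives centre near -14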
Mtb hypoxia rep: Mtb hypoxia fluorescent reporter inhibition; M. tuberculosis hypoxia-regulated fluorescent reporter, fluorescence; fluorescence inhibition, % (test concentration not listed); 300,000 compounds, 0.1% hits; AID 1159583;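 active = 35 to 45% if threefold the growth effect, above 45% if 1.5-fold the growth effect; inactive = the rest, general growth blockers included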;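 note: wells of about 50 µL received 100 nL stock; 0% = vehicle wells and 100% = reference inhibitor wells; whole bacteria with a GFP reporter of the hypoxia response; strong numbers were not always called active; many hits fall short of the cut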
RN4220 kill: kills Staphylococcus aureus RN4220 | S. aureus RN4220 growth, OD600, 16 h | inhibition, % (test concentration not listed) | 330,000 compounds, 0.33% hits | AID 1259311;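 active = z-score of -3 or lower and OD600 up to 0.18 on both plates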;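 note: plate controls were untreated cells for no effect and reference antibiotic for full effect; stock transfer was 100 nL into about 80 µL; one replicate is shown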
Autofluor counter: compound fluorescence in toxin protease inhibitor counterscreen; compound autofluorescence counterscreen, microsphere flow cytometry; hits give high values; fluorescence intensity (concentration not given with the values); 360,000 compounds, 3.1% hits; AID 624483;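 active = at least 3 SD above the mean of all compounds, about 16000 in these data; inconclusive = too few beads counted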;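 note: 100 nL of 1 mM stock went into each well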
ugtP null kill: kills S. aureus RN4220 lacking UgtP; S. aureus RN4220 ugtP deletion, OD600 growth, 16 h; some inactives read as strong as hits; growth inhibition, % (no concentration beside the values); 330,000 compounds, 0.54% hits; AID 1259309;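 active = z-score under -3 and OD600 up to 0.15 on both plates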;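 note: plate controls were untreated wells for no effect and antibiotic for full effect; wells of about 80 µL received 100 nL stock; the first replicate is given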
Mtb hypoxia rep growth: second read-out of Mtb hypoxia rep, no call of its own (marks repeat the call); growth inhibition, %; measured here: M. tuberculosis growth (absorbance);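 0% = vehicle and 100% = reference antibiotic; read after six days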
* marks the source's active call; other numbers are inactive results; ? = inconclusive; / = no result given. Outcome played no part in choosing rows; overall some 4% were active at least once.

SMILES	BJeLR viability	PrP 5UTR inh	Mtb hypoxia rep	Mtb hypoxia rep growth	RN4220 kill	Autofluor counter	ugtP null kill
CCOC(=O)C(NS(=O)(=O)c1ccccc1)(C(F)(F)F)P(=O)(OCC(C)C)OCC(C)C (stereo not drawn)	-5	1	2	-6	8.3	2490	-4
O=C(COc1ccc(S(=O)(=O)N2CCCC2)cc1Cl)NCc1cccnc1	-7	-29	4	-1	1.1	6389	-2
COc1ccc(S(=O)(=O)N2CCC(C(=O)NCCc3c[nH]c4ccccc34)CC2)cc1	-3	-13	4	-4	3.1	4268	5
COCCCN1C(=O)C(=O)/C(=C(/O)c2ccc(S(=O)(=O)N3CCOCC3)cc2)C1c1ccc(Cl)cc1 (stereo not drawn)	-10	-17	-2	1	5.3	4977	4
Cc1ccc(-n2c(O)c(C=NCc3ccccn3)c3ccccc3c2=O)cc1	-9	-7	7	1	1.6	2678	1
CCOC(=O)C(NC(C)=O)C(=O)Nc1c(C)cccc1C (stereo not drawn)	2	-33	1	9	0.6	3034	2
O=C1C=C(c2ccccc2)C(c2ccccc2)C1 (stereo not drawn)	/	-14	19	7	1.3	3721	9
O=C(/C=C/c1ccccc1)Nc1ccc(Cl)cn1	7	-130	0	7	0.0	2471	3
N#CCSc1nnc(-c2ccc(F)cc2)n1N	-8	-23	7	8	1.2	4213	2
Cc1cccc(N2CCN(S(=O)(=O)c3c(C(=O)N4CCCCC4)c(C)n(C)c3C)CC2)c1C	10	-4	8	7	-2.9	5808	11
N=c1ccn(Cc2ccc(Cl)c(Cl)c2)cc1	10	-4	/	/	-1.1	3872	5
CCNC(=O)N1C(=O)C2(OCCO2)c2cc(Br)ccc21	-5	-16	-9	3	4.5	9143	0
CC(=NNc1ccc(C)cc1)C1(C)N(O)C(C)(C)C(c2ccco2)=[N+]1[O-] (stereo not drawn)	/	/	5	1	1.1	/	-2
Cc1cc(N2CCOCC2)ccc1/C=C1\NC(=O)N(CC(=O)Nc2ccc(F)cc2)C1=O	-4	-27	/	/	/	2424	/
COc1cc(/C=C(\C#N)C(=O)NCC2CCCO2)ccc1OC(C)C (stereo not drawn)	1	-28	9	-4	1.5	2855	6
Cc1ccccc1NC(=O)c1ccc(NS(=O)(=O)c2cc(C(C)(C)C)cc(C)c2C)cc1	8	-16	1	-11	-7.4	9823	-6
C=CCn1c(=NC(=O)C2CCCCC2)sc2cc(NC(C)=O)ccc21	4	-9	12	6	2.5	4271	11
CC(C)CCNC(=O)C1(c2cccs2)CCOCC1	11	-19	10	12	3.2	4591	7
CC1(OC(=O)CCc2ccccc2)C(=O)C=C2C=C(c3ccc(C#N)cc3)N(CCc3ccccn3)C=C2C1=O (stereo not drawn)	-3	-32	8	14	2.7	3147	-2
CCOc1ccc(OCCNCc2ccc(OC(C)C(=O)N(C)C)c(OCC)c2)cc1 (stereo not drawn)	-3	-12	2	3	1.1	3993	12

Reprinted from the part before: two compounds, followed by the next part.
SMILES	BJeLR viability	PrP 5UTR inh	Mtb hypoxia rep	Mtb hypoxia rep growth	RN4220 kill	Autofluor counter	ugtP null kill
CC1(OC(=O)CCc2ccccc2)C(=O)C=C2C=C(c3ccc(C#N)cc3)N(CCc3ccccn3)C=C2C1=O (stereo not drawn)	-3	-32	8	14	2.7	3147	-2
CCOc1ccc(OCCNCc2ccc(OC(C)C(=O)N(C)C)c(OCC)c2)cc1 (stereo not drawn)	-3	-12	2	3	1.1	3993	12
O=C(Cc1ccccc1)N/N=C/c1cccnc1	1	-58	/	/	/	3576	/
O=C(NNC(=S)NC(=O)c1ccco1)c1ccc(NC(=O)c2ccccc2)cc1	-1	6	-3	4	13	5158	9
COC(=O)C1CCN(C(=O)c2ccc3oc(Cc4ccc(Cl)cc4)nc3c2)CC1	-5	-14	6	-3	1.3	4636	6
Cc1ccc(S(=O)(=O)NNC(=O)CCCCC(=O)NNS(=O)(=O)c2ccc(C)cc2)cc1	3	-9	/	/	/	2052	/
COc1ccc(C(=O)N/C(=C\c2cn(S(=O)(=O)N(C)C)c3ccccc23)C(=O)NCCN2CCOCC2)cc1OC	-5	-28	4	4	1.5	5639	0
O=C(CSc1nnc(-c2ccccc2F)n1C1CC1)Nc1cccnc1Cl	-11	0	-9	2	-2.4	2547	2
CCCC1=Nc2cc(C(=O)NCCCN3CCOCC3)ccc2Sc2ccccc21	4	-20	-4	3	-3.0	5212	-3
CCOC(=O)CNC(=O)C12CC3CC(C1)CC(c1ccc(C)cc1)(C3)C2	5	-33	6	1	4.5	4449	-2
Cc1ccc(S(=O)(=O)N2CC(=O)NC(=O)C2)cc1	4	-6	-5	1	3.4	4451	2
CN(Cc1ccccc1)C(=O)COC(=O)c1ccc(Cl)c(N)c1	-3	0	-1	10	-3.0	2033	4
CN1CCCC(C(=O)c2ccc(Cl)cc2)C1 (stereo not drawn)	4	-1	-3	7	2.2	5234	11
C1CCC(CNc2c3c(nc4nnnn24)CCCC3)CC1	6	-16	10	5	-1.0	4739	12
Cc1ccc(SCC(c2ccccc2)N2CCN(CCc3ccccc3)CCC2=O)cc1 (stereo not drawn)	/	/	-10	3	-4.0	/	-3
CCCCN(C(=O)c1ccc([N+](=O)[O-])s1)c1c(N)n(CCCC)c(=O)[nH]c1=O	3	-4	3	-8	9.1	4920	2
O=C(O)c1ccc(COCC(F)(F)C(F)F)o1	11	-1	-15	-2	4.6	4703	-3
CC12CC(O)C3C(CCC4=CC(=O)CCC43C)C1CCC2=CCO (stereo not drawn)	/	-9	10	6	3.8	3232	5
Cc1csc(-c2cnn(-c3ccccc3)c2NC(=O)c2cccc(F)c2)n1	-4	-18	2	4	27	2504	19
CCS(=O)(=O)N1Cc2ccccc2CC1C(=O)N(C)CC(=O)Nc1ccc(OC)cc1 (stereo not drawn)	/	-6	6	5	-0.1	6198	5
COc1ccccc1NC(=O)CN1CCC(n2nnc3cc(F)ccc32)CC1	2	-20	4	7	4.4	3798	-2
CC1CCN(S(=O)(=O)c2ccc(NC(=O)CCNC(=O)c3ccc(Cl)cc3)cc2)CC1	/	-13	7	-10	1.5	?	5
Cc1cccc(N2CCN(C(=S)c3ccc(-c4ccccc4[N+](=O)[O-])o3)CC2)c1	-10	4	4	2	-4.1	1958	-1
S=c1[nH]cc(-c2ccccc2)n1-c1ccccc1	3	-17	/	/	0.3	/	9
C#CCOCCOCCOCCNc1nc(N2CCN(C(=O)CCCCCCCCCCNC(=O)Cn3cc(CC(C)O)nn3)CC2)nc(N2CCN(C(=O)CCCCCCCCCCNC(=O)C(C(C)O)n3cc(C)nn3)CC2)n1 (stereo not drawn)	/	/	-7	10	2.4	/	-2
COc1ccc(C(C(=O)NC2CCCC2)N(C(=O)c2ccoc2C)c2ccc(C)cc2)cc1 (stereo not drawn)	6	-10	11	1	-4.4	12047	-8
CC(C)Cn1c(N)c(-c2nc(C(C)C)c(C(=O)c3ccccc3F)s2)c(=O)n(C)c1=O	8	/	6	5	5.6	/	0
COc1ccc(C(CC(=O)c2ccc(O)cc2)S(=O)(=O)c2ccc(C)cc2)cc1 (stereo not drawn)	2	-44	2	2	14	7611	6
COc1ccc(Cc2n[nH]c(=S)n(N)c2=O)cc1	-1	-32	-1	12	2.9	4032	4
Cc1c(Cl)cccc1NC(=O)C1CCCN(S(C)(=O)=O)C1 (stereo not drawn)	4	0	-3	1	3.9	4353	2
CCn1c(=O)cc(N2CCN(C(=O)c3ccco3)CC2)[nH]c1=O	0	-9	5	8	1.8	6028	7
COc1ccc(NP(=O)(Oc2cccc(C)c2)Oc2cccc(C)c2)cc1OC	-2	11	-7	4	-0.3	6228	-25
COc1ccccc1CCC(=O)OC(C)C(=O)Nc1c(C)n(C)n(-c2ccccc2)c1=O (stereo not drawn)	8	-8	11	12	2.6	/	2
Cc1csc(SCC(=O)NC2CCC(C)CC2)n1 (stereo not drawn)	6	-10	4	3	0.2	6260	4
Cc1onc(-c2ccccc2)c1C(=O)N/N=C/c1ccco1	5	-11	/	/	/	5730	/
Cc1cc(Nc2ccccc2)nn1C(=O)c1ccccc1	1	-19	10	5	-6.8	6962	-4
Cc1ccc(S(=O)(=O)N2CCN(CC(=O)NN=Cc3ccc(Br)s3)CC2)cc1	/	/	5	4	4.2	/	-7
CC(C)C(=O)C1=Cc2cc([N+](=O)[O-])ccc2OC1N1CCOCC1 (stereo not drawn)	-7	-7	-5	-3	73	3243	36
O=C(COCC(=O)N1CCOCC1)N1CCOCC1	-7	-19	3	-3	2.7	2031	-1
COC(=O)C1CCN(C(=O)c2ccc(SC)cc2OC)CC1	14	0	3	3	8.6	20634*	4
Cc1cccc(Oc2nc3ccccn3c(=O)c2/C=C(\C#N)C(=O)NC2CCS(=O)(=O)C2)c1 (stereo not drawn)	5	-13	6	-1	3.7	2381	8
COc1cc(/C=C2/C(=O)CNC2=O)ccc1O	-3	-21	/	/	/	2024	/
O=C1C2CCCN2C(=O)N1CCCN1CCN(c2cccc(Cl)c2)CC1 (stereo not drawn)	6	-25	-1	5	5.2	2356	16
CCCCOc1ccc(Cc2c(Cl)nc(SC)nc2N2CCOCC2)cc1	5	-21	8	6	-2.0	2079	92*
COc1ccc2c(c1)c1nnc(SCC(=O)N3CCCCC3C)nc1n2C (stereo not drawn)	-7	-13	0	1	2.1	9095	-9
COc1ccc(-n2nc3cc(C)c(NC(=O)CC(C)C)cc3n2)cc1	-6	/	-2	0	-1.5	/	0
CC1CCN(C(=O)c2[nH]cnc2C(=O)Nc2nccs2)CC1	/	-11	3	7	2.7	3961	4
CCN(CCCNC(=O)CCn1c(=O)[nH]c2ccccc2c1=O)c1cccc(C)c1	-14	-19	7	7	4.8	6571	3
COc1ccc(-c2cc(-c3ccccc3)nc(=O)[nH]2)cc1	-13	-8	7	5	2.0	5968	0
O=C(CCCOc1ccccc1)Nc1ccc2c(c1)OCCO2	6	-32	7	13	0.9	3076	7
O=[N+]([O-])c1ccc(N2CCOCC2)c2cccnc12	1	5	12	2	6.4	3291	4
CCN(C(=O)COC(=O)/C=C/c1ccc(O)c(OC)c1)C1CCS(=O)(=O)C1 (stereo not drawn)	22	-20	3	0	6.7	2177	4
Cc1ccc(C=NNC(=O)C[n+]2ccccc2)s1	/	/	11	5	2.8	/	7
O=C(NCCN1CCCC1)c1ccc(Cn2c(=S)[nH]c3cc4c(cc3c2=O)OCO4)cc1	4	-4	-3	7	6.0	6047	-10
CCOCC(=O)Nc1nc2ccc(OC)cc2s1	-1	-103	/	/	-2.1	2771	9
Cc1nc2ccccc2c(=O)n1NC(=O)/C=C/c1ccc(Br)cc1	-16	-13	-2	-2	1.0	2110	-4
Cc1ccc(NC2SC(=O)N(CC(=O)O)C2=O)cc1 (stereo not drawn)	9	-23	-2	-8	1.2	7017	3
O=C(NCCN1CCN(c2ccccc2)CC1)c1cccc(Br)c1	1	-3	3	5	1.4	23925*	10
O=C(COc1ccc(-n2cnnn2)cc1)Nc1cccc(Cl)c1Cl	-3	4	7	-5	5.8	4907	-3
O=C(Nc1ccncc1)c1cc(S(=O)(=O)N2CCCC2)ccc1Cl	/	-8	10	-1	9.7	4297	12
CCc1ccc(OCC(=O)N2CC(C(=O)OC)Oc3ccccc32)cc1 (stereo not drawn)	-5	-13	5	-2	4.4	4315	1
COc1ccc(CCn2c(=N)c(C(=O)NCCN3CCOCC3)cc3c(=O)n4cccc(C)c4nc32)cc1OC	-1	-18	14	4	0.6	6162	-4
Cc1c(N2C(=O)CSC2=NN=Cc2ccc(Br)cc2)c(=O)n(-c2ccccc2)n1C	/	/	/	/	-19	/	0
COC(=O)c1ccc(C=NNC(=O)C(=O)N2CCCCCC2)cc1	/	/	6	-2	7.0	/	2

Source: PubChem
